# UUG fidelity: modulators of start codon recognition fidelity in yeast. S. cerevisiae UUG-firefly luciferase reporter, luminescence/redox ratio. activity score, % at 18.7 µM. 350,000 tested, 0.13% active. AID 602363;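 active = replicate mean at a twofold rise or more, about +100% in these data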;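 also: firefly luciferase made from a UUG start codon reports start codon fidelity; reporter light over untreated wells divided by growth signal over untreated wells; some hits fall short of that in this replicate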
# Numbers without * were called inactive. Not all compounds are listed; the hit share may differ from the screen's.
SMILES,UUG fidelity
O=C(C[C@@H]1CC[C@H]2[C@@H](COC[C@@H](O)CN2C(=O)c2ccccc2)O1)NCc1cccc(F)c1,11
C[C@@H]1CN([C@@H](C)CO)C(=O)CCCn2nncc2CO[C@H]1CN(C)Cc1cccc(C(=O)O)c1,12
CC(=O)N1CC[C@@H]2[C@H]1c1cc(-c3cccc(F)c3)ccc1N(C)[C@H]2CO,3
C[C@H]1CN([C@@H](C)CO)C(=O)CCCn2nncc2CO[C@H]1CN(C)Cc1cccc(C(=O)O)c1,-4
C[C@H]1CN([C@@H](C)CO)C(=O)Cc2cc(NC(=O)C3CC3)ccc2O[C@H]1CN(C)C(=O)Nc1ccccc1,12
O=C(C[C@@H]1CC[C@@H]2[C@H](COC[C@H](O)CN2Cc2nccs2)O1)NCc1ccc(-c2ccccc2)cc1,-9
C[C@H](CO)N1C[C@H](C)[C@H](CN(C)Cc2ccc(Cl)c(Cl)c2)Oc2ccc(NC(=O)Cc3cn(C)c4ccccc34)cc2C1=O,8
COc1ccc(C#Cc2ccc3c(c2)[C@H]2[C@H](CCN2C(=O)C2CC2)[C@H](CO)N3)cc1,-23
CCNC(=O)C[C@@H]1CC[C@H]2[C@@H](COC[C@H](O)CN2C(=O)c2cccnc2)O1,-5
COc1ccc(NC(=O)N2C[C@@H](O)COC[C@@H]3O[C@H](CC(=O)N4CCOCC4)CC[C@H]32)cc1,2
C[C@H]1CN([C@@H](C)CO)C(=O)Cc2cc(NC(=O)Nc3ccc(F)cc3)ccc2O[C@H]1CN(C)C(=O)Nc1ccccc1,-7
C/C=C/c1ccc([C@H]2[C@@H](CNCC)N(c3nc(C)c(C)s3)[C@H]2CO)cc1,-14
CNC[C@@H]1Oc2ccc(NC(=O)NC(C)C)cc2CC(=O)N([C@@H](C)CO)C[C@H]1C,-2
C[C@@H]1CN([C@H](C)CO)C(=O)c2cc(NC(=O)NC3CCCCC3)ccc2O[C@H]1CN(C)Cc1ccc(C(F)(F)F)cc1,3
CO[C@H]1CN(C)C(=O)c2ccc(NC(=O)c3ccccc3)cc2OC[C@@H](C)N(C(C)=O)C[C@@H]1C,-10
C[C@@H]1CN([C@@H](C)CO)C(=O)c2cccc(NS(=O)(=O)c3ccc(F)cc3)c2O[C@H]1CN(C)CC1CCCCC1,0
OC[C@H]1[C@H]2c3ccccc3NC[C@H]2N1CC1CCOCC1,-17
O=C(C1CCOCC1)N1CC[C@@H]2[C@H](CO)Nc3ccc(-c4cccc(F)c4)cc3[C@@H]21,-13
COc1ccc(CN2[C@@H]3CN(C(=O)c4ccccc4)c4ccccc4[C@@H]3[C@@H]2CO)cc1,3
C[C@@H]1CN([C@H](C)CO)C(=O)c2cc(NC(=O)Cn3cnnn3)ccc2O[C@H]1CN(C)S(=O)(=O)c1cccs1,-10

# A few values from above.
# UUG fidelity, `C[C@H](CO)N1C[C@H](C)[C@H](CN(C)Cc2ccc(Cl)c(Cl)c2)Oc2ccc(NC(=O)Cc3cn(C)c4ccccc34)cc2C1=O` = 8
# UUG fidelity, `CO[C@H]1CN(C)C(=O)c2ccc(NC(=O)c3ccccc3)cc2OC[C@@H](C)N(C(C)=O)C[C@@H]1C` = -10
# UUG fidelity, `OC[C@H]1[C@H]2c3ccccc3NC[C@H]2N1CC1CCOCC1` = -17
# UUG fidelity, `COc1ccc(C#Cc2ccc3c(c2)[C@H]2[C@H](CCN2C(=O)C2CC2)[C@H](CO)N3)cc1` = -23
# UUG fidelity, `O=C(C[C@@H]1CC[C@H]2[C@@H](COC[C@@H](O)CN2C(=O)c2ccccc2)O1)NCc1cccc(F)c1` = 11
# UUG fidelity, `O=C(C[C@@H]1CC[C@@H]2[C@H](COC[C@H](O)CN2Cc2nccs2)O1)NCc1ccc(-c2ccccc2)cc1` = -9
# UUG fidelity, `CC(=O)N1CC[C@@H]2[C@H]1c1cc(-c3cccc(F)c3)ccc1N(C)[C@H]2CO` = 3

# Next part.
SMILES,UUG fidelity
Cc1ccccc1-c1ccc([C@H]2[C@@H](CO)N3CCCCN(C(=O)Nc4ccc(F)cc4)C[C@H]23)cc1,7
CN1CCN(C(=O)C[C@@H]2CC[C@@H]3[C@H](COC[C@@H](O)CN3C(=O)Nc3cc(Cl)cc(Cl)c3)O2)CC1,-1
CC(=O)N1[C@H](CO)[C@H](c2ccc(-c3cccc(F)c3)cc2)[C@H]1CNC(=O)C1CC1,-6
Cc1ccc(S(=O)(=O)N(C)C[C@H]2Oc3ccc(NC(=O)CCCN(C)C)cc3C(=O)N([C@H](C)CO)C[C@@H]2C)cc1,-5
O=C(Cc1ccccc1)N1C[C@@H]2[C@H](c3ccccc31)[C@@H](CO)N2C(=O)Cc1ccccc1,10
CCCN1[C@H](C(=O)NCCCN(C)C)[C@@H](CO)[C@@H]2Cn3c(ccc(C4=CCCC4)c3=O)[C@@H]21,11
CN1CCN(C(=O)C[C@H]2C[C@@H]3c4cc(NC(=O)C5CCOCC5)ccc4O[C@@H]3[C@H](CO)O2)CC1,4
O=C(C1CCOCC1)N1CC[C@@H]2[C@H]1c1cc(-c3ccc(F)cc3)ccc1N[C@@H]2CO,0
C[C@@H]1CN([C@H](C)CO)C(=O)CCCn2cc(nn2)CO[C@@H]1CN(C)S(=O)(=O)c1cn(C)cn1,-21
CCN1[C@@H]2Cn3c(ccc(-c4ccccc4F)c3=O)[C@H]1[C@@H](C(=O)NCc1ccccc1)[C@@H]2CO,3
O=C(C[C@@H]1CC[C@@H]2[C@H](COC[C@H](O)CN2CC2CCCCC2)O1)NCC1CC1,1
CCN(C[C@@H]1[C@H](c2ccccc2)[C@@H](CO)N1CC1CC1)C(=O)c1ccccn1,-6
COc1ccc(NC(=O)N2CCCCN3[C@H](C2)[C@H](c2ccc(C#Cc4ccccc4)cc2)[C@@H]3CO)cc1,3
COc1ccc(S(=O)(=O)Nc2cccc3c2O[C@@H](CN(C)Cc2ccncc2)[C@@H](C)CN([C@H](C)CO)C3=O)cc1,-5
CN(C)CC#Cc1ccc([C@@H]2[C@@H](CO)N3CCCCN(C(=O)NC4CCCC4)C[C@@H]23)cc1,7
CCC(=O)N1C[C@@H](C)[C@H](OC)CN(C)C(=O)c2cc(NC(=O)Nc3ccc(Cl)cc3)ccc2OC[C@@H]1C,5
C[C@H](CO)N1C[C@H](C)[C@@H](CN(C)Cc2ccc(-c3ccccc3)cc2)Oc2ccc(NS(=O)(=O)c3cccs3)cc2C1=O,8
CC(=O)N1CC[C@@H]2[C@@H](CO)N(C)c3ccc(-c4ccccc4)cc3[C@@H]21,7
CC(C)NC(=O)N(C)C[C@H]1Oc2ccc(NC(=O)CCCN(C)C)cc2C(=O)N([C@H](C)CO)C[C@H]1C,-1
C[C@@H]1CN([C@H](C)CO)C(=O)c2cc(NS(=O)(=O)c3ccc(F)cc3)ccc2O[C@@H]1CN(C)Cc1ccc2c(c1)OCO2,6
C/C=C/c1ccc([C@H]2[C@@H](CO)N(Cc3ccccn3)[C@H]2CNC(=O)CC)cc1,-20
CCC(=O)N1[C@H](CO)[C@H](c2ccc(-c3cccc(F)c3)cc2)[C@@H]1CN(C)C(C)=O,-1
Cc1noc(C)c1NC(=O)N(C)C[C@@H]1Oc2ccc(NS(=O)(=O)c3cccs3)cc2C(=O)N([C@@H](C)CO)C[C@H]1C,5
CCS(=O)(=O)Nc1ccc2c(c1)C(=O)N(C)C[C@H](OC)[C@@H](C)CN(C(=O)NC(C)C)[C@@H](C)CO2,-1
C[C@H]1CN([C@@H](C)CO)C(=O)c2cc(NS(=O)(=O)c3ccc(Cl)cc3)ccc2O[C@H]1CN(C)Cc1ccc2c(c1)OCO2,6
C[C@@H]1CN([C@@H](C)CO)C(=O)c2cccc(NC(=O)Nc3ccccc3)c2O[C@H]1CN(C)CC1CC1,-15
O=C(C[C@@H]1CC[C@@H]2[C@H](COC[C@H](O)CN2S(=O)(=O)c2cccc(Cl)c2)O1)NC1CCCC1,11
CO[C@H]1CN(C)C(=O)c2cc(NC(=O)NC(C)C)ccc2OC[C@H](C)N(C)C[C@@H]1C,-4
CNC(=O)C[C@@H]1CC[C@@H]2[C@H](COC[C@@H](O)CN2C(=O)Nc2cccc(OC)c2)O1,-16
COc1ccc(-c2ccc([C@@H]3[C@H](CO)N4CCCCN(S(=O)(=O)c5cccs5)C[C@@H]34)cc2)cc1,6
COc1ccc(S(=O)(=O)Nc2ccc3c(c2)C(=O)N([C@H](C)CO)C[C@H](C)[C@@H](CN(C)Cc2ccncc2)O3)cc1,-12
COc1ccccc1-c1ccc2c(c1)[C@H]1[C@H](CCN1S(=O)(=O)c1cn(C)cn1)[C@@H](CO)N2,-3
CNC[C@H]1Oc2c(NC(=O)Nc3ccc(F)cc3)cccc2C(=O)N([C@@H](C)CO)C[C@H]1C,-7
Cc1ccc(S(=O)(=O)N(C)C[C@H]2Oc3c(NC(=O)c4nc5ccccc5s4)cccc3C(=O)N([C@@H](C)CO)C[C@@H]2C)cc1,-20
CO[C@H]1CN(C)C(=O)c2ccc(NS(C)(=O)=O)cc2OC[C@H](C)N(Cc2cccnc2)C[C@H]1C,-9
CC(C)NC(=O)N(C)C[C@@H]1Oc2ccc(NC(=O)CCN3CCOCC3)cc2CC(=O)N([C@H](C)CO)C[C@H]1C,6
C/C=C/c1ccc([C@@H]2[C@@H](CN(C)C(C)=O)N(C(=O)C3CC3)[C@H]2CO)cc1,-11
CN1C(=O)c2cc(NC(=O)c3ccccc3Cl)ccc2OC[C@H]2O[C@@H](CC(=O)O)CC[C@@H]21,-1
C[C@@H]1CN([C@@H](C)CO)C(=O)c2cc(NC(=O)Cc3cn(C)c4ccccc34)ccc2O[C@H]1CN(C)Cc1ccc(C(=O)O)cc1,2
CN1c2ccc(-c3ccccc3)cc2[C@H]2[C@H](CCN2C(=O)c2ccc3c(c2)OCO3)[C@H]1CO,-12
C/C=C/c1ccc([C@H]2[C@@H](CN(C)S(C)(=O)=O)N(C(=O)CC)[C@H]2CO)cc1,3
Cn1cnc(S(=O)(=O)N2CCCCN3[C@H](CO)[C@H](c4ccc(-c5ccc(F)cc5)cc4)[C@H]3C2)c1,-4
Cc1ccc(S(=O)(=O)Nc2ccc3c(c2)CC(=O)N([C@H](C)CO)C[C@@H](C)[C@H](CN(C)C)O3)cc1,19
COCC(=O)N1CCCCN2[C@H](CO)[C@@H](c3ccc(-c4cccc(C)c4)cc3)[C@@H]2C1,-1
CCCNC(=O)N1C[C@H]2[C@@H](c3ccccc31)[C@@H](CO)N2Cc1ccccc1F,-16
C[C@@H]1CN([C@H](C)CO)C(=O)c2cccc(NC(=O)c3cnccn3)c2O[C@H]1CN(C)C,-14
CCC(=O)N1CC[C@@H]2[C@H]1c1cc(-c3ccc(OC)cc3)ccc1N[C@@H]2CO,-2
Cc1ccccc1S(=O)(=O)N1CCCCN2[C@H](CO)[C@H](c3ccc(-c4cccc(F)c4)cc3)[C@H]2C1,-2
C[C@H]1CN([C@@H](C)CO)C(=O)c2cc(NC(=O)C3CCCCC3)ccc2O[C@H]1CN(C)C(=O)Nc1ccccc1,18
CC(=O)N1[C@@H]2c3ccc(C4=CCCC4)c(=O)n3C[C@H]1[C@H](CO)[C@H]2C(=O)N[C@H](C)c1ccccc1,22
COc1ccc(C#Cc2ccc([C@H]3[C@H](CO)N4CCCCN(S(=O)(=O)c5cn(C)cn5)C[C@@H]34)cc2)cc1,0
COCCN(C[C@H]1[C@@H](c2ccccc2)[C@H](CO)N1C(C)=O)C(=O)c1ccncc1,-12
CC(C)NC(=O)Nc1ccc2c(c1)C(=O)N([C@H](C)CO)C[C@H](C)[C@H](CN(C)S(=O)(=O)c1ccc(Cl)cc1)O2,0
CN1c2ccc(-c3ccc(F)cc3)cc2[C@H]2[C@H](CCN2C(=O)Nc2cc(F)ccc2F)[C@H]1CO,-11
CCCC#Cc1ccc([C@H]2[C@@H](CO)N3CCCCN(Cc4cncnc4)C[C@@H]23)cc1,-7
CCC(=O)N(C)C[C@H]1[C@H](c2ccc(C3=CCCC3)cc2)[C@@H](CO)N1C(=O)CC,8
O=C([C@H]1[C@H](CO)[C@H]2Cn3c(cccc3=O)[C@H]2N1CC1CC1)N1CCc2ccccc2C1,-3
OC[C@@H]1[C@H](c2ccc(-c3ccccc3F)cc2)[C@@H]2CN(Cc3cccnc3)CCCCN12,-14
CO[C@@H]1CN(C)C(=O)c2cc(NC(=O)C3CCCC3)ccc2OC[C@@H](C)N(S(C)(=O)=O)C[C@@H]1C,18
C[C@@H]1CN([C@H](C)CO)C(=O)Cc2cc(NC(=O)CCC(F)(F)F)ccc2O[C@@H]1CN(C)Cc1ccc(C(F)(F)F)cc1,-6

# Fetched by structure from the entries so far, 3 records:
SMILES,UUG fidelity
Cn1cnc(S(=O)(=O)N2CCCCN3[C@H](CO)[C@H](c4ccc(-c5ccc(F)cc5)cc4)[C@H]3C2)c1,-4
CCCC#Cc1ccc([C@H]2[C@@H](CO)N3CCCCN(Cc4cncnc4)C[C@@H]23)cc1,-7
COc1ccc(C#Cc2ccc([C@H]3[C@H](CO)N4CCCCN(S(=O)(=O)c5cn(C)cn5)C[C@@H]34)cc2)cc1,0

# Continuation:
SMILES,UUG fidelity
CCC(=O)N1[C@H](CO)[C@@H](c2ccc(-c3cccnc3)cc2)[C@@H]1CN(CC)C(C)=O,-4
O=C(Nc1cc(F)ccc1F)N1CCCCN2[C@@H](CO)[C@H](c3ccc(-c4ccccc4)cc3)[C@@H]2C1,2
C[C@H](CO)N1C[C@H](C)[C@H](CN(C)S(=O)(=O)c2ccc(Cl)cc2)Oc2c(NC(=O)c3ccncc3)cccc2C1=O,-20
COc1ccc(CNC(=O)C[C@H]2C[C@H]3c4cc(NS(C)(=O)=O)ccc4O[C@H]3[C@@H](CO)O2)cc1,-13
COC(=O)C[C@H]1CC[C@@H]2[C@@H](COc3ccc(NC(=O)Nc4cccc(F)c4)cc3C(=O)N2C)O1,-4
COCC(=O)N1[C@H](CO)[C@@H]2c3ccccc3N(C(=O)Nc3ccccc3F)C[C@@H]21,-9
C[C@H](CO)N1C[C@H](C)[C@H](CN(C)Cc2ccc(C(=O)O)cc2)Oc2ccc(NC(=O)Nc3ccccc3)cc2C1=O,-5
CO[C@H]1CN(C)C(=O)c2cc(NC(=O)c3ccc(F)cc3)ccc2OC[C@H](C)N(C(C)=O)C[C@H]1C,16
C[C@H](O)C#Cc1ccc([C@H]2[C@@H](CO)N3CCCCN(S(=O)(=O)c4ccccc4)C[C@H]23)cc1,12
